Screening results as filed in PubChem.
TRPML1 inh – blocks the human TRPML1 channel | Q9GZU1 | TRPML1-inducible cells, Ca2+ dye fluorescence, FDSS; stronger effect = lower value; inhibition of EC80 agonist-evoked calcium signal | activity change, negative = inhibition, % (concentration not given with the values) | 390,000 tested, 0.02% active; in the data active means activity change below about -50%; inconclusive means about -30% to -50%; inactive means above about -30%;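 also: stimulus is agonist 54-4 at its EC80 concentration; % is scaled to controls: 0 for no effect and ±100 for the full control effect; compound concentration not given in the record; the text of the record puts the active cut at -80%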
Target sequence (Q9GZU1 whole entry, looked up): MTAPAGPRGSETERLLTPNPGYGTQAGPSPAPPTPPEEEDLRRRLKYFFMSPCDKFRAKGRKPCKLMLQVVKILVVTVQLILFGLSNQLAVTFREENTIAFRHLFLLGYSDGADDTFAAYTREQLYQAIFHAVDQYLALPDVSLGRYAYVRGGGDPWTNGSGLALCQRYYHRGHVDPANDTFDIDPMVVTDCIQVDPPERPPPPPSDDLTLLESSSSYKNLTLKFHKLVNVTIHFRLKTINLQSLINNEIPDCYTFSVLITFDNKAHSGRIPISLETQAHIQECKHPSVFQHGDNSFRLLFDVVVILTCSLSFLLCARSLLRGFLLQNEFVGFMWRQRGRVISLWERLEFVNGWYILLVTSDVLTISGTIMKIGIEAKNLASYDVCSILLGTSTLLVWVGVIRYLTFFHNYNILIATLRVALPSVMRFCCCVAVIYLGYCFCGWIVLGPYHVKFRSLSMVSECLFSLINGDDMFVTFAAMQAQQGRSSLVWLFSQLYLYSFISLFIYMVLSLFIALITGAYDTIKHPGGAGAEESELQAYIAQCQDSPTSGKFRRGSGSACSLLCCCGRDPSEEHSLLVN
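Tet-induced TRPML1-DL cells loaded with Ca8 no-wash calcium dye were read kinetically on FDSS. Compound addition was followed by EC80 agonist 54-4 (4 uM final); inhibition was read over 110 s.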
D2 PAM – human D2 receptor positive allosteric modulation; 360,000 tested, 0.23% active; DiscoveRx D2 beta-arrestin cells, luminescence, 90 min; 100% = 57 uM dopamine signal; P14416; potentiation, % (no concentration beside the values); AID 624464; active = potentiation of 50% or more; inconclusive = 30% to 50%; inactive = 30% or less;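 also: compound concentration not given in the record; tested on top of an EC20 dose of dopamine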
Target sequence (P14416 whole entry, looked up): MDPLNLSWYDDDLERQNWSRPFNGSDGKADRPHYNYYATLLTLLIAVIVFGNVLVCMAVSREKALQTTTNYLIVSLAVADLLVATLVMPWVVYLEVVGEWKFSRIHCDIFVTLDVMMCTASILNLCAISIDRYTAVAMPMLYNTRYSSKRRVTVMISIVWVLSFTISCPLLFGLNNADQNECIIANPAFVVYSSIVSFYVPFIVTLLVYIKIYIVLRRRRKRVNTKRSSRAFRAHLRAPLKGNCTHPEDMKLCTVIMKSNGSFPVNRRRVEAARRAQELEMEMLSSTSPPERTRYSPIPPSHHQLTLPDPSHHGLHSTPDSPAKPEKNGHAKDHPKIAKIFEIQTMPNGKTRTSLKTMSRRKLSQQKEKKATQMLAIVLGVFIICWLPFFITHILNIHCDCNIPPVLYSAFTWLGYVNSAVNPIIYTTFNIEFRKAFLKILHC
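PathHunter beta-arrestin assay in DiscoveRx D2 cells. Compounds were added with an EC20 of dopamine (50 nM final) for 90 min at 37 deg C. Luminescence was read 1 h after detection reagent, with 57 uM dopamine as the EC100 control.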
Six1-Eya2 blk – inhibitors of human Six1/Eya2 interaction; Q15475+O00167; AlphaScreen GST-Six1/His-Eya2 binding, biochemical; stronger effect = lower value; control for the full effect not named in the record; activity change, % (concentration not given with the values); 360,000 tested, 0.56% active; AID 651725; in the data active = activity change below about -65%; inconclusive = about -30% to -65%; inactive = above about -30%; also: % is scaled to controls: 0 for no effect and ±100 for the full control effect
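AlphaScreen luminescence read after one hour at 37 °C in darkness. Pin-transferred compounds met GST-Six1 and His-Eya2 protein (5X stock 250 nM/500 nM) plus glutathione donor and Ni-chelate acceptor beads (5X, 50 ug/mL).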
PINK1 modulator – PINK1 expression modulation. AID 624263. Potency, µM (titrated, usually from 76.6 µM), for inactives: top-dose activation (PINK1 increase), hits mostly activators. 410,000 tested, 0.2% active. PINK1 immunofluorescence, high-content cytometry, 24 h; active = well fitted activation curve with a large enough effect; inconclusive = small, poorly fitted or top-dose-only effect; inactive = flat fitted curve, though single readings scatter; cell line not stated here;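 also: potency is read from the fitted curve at half-maximal effect; % of control where 0% means no effect; nearly all actives have a fitted effect of over 65% in size; a mitochondrial uncoupler was the plate control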
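A stable cell line was treated with compounds at 5 concentrations for 24 hours, with CCCP as control. PINK1 levels and mitochondrial localization were measured by immunofluorescence with mitochondrial, cell and nuclear markers after fixation, read by laser-scanning cytometry.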
TRPML1 agonist – agonists of human TRPML1 channel; activation, % (no concentration beside the values); 410,000 tested, 0.12% active; TRPML1-expressing cells, Ca2+ dye fluorescence, FDSS; host cell line not named in the record; reference of the full effect not given here; AID 624414; Q9GZU1; in the data active = activation above about 50%; inconclusive = about 30% to 50%; inactive = below about 30%; also: 0% is about no effect; the text of the record puts the active cut at 80%
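Tet-induced TRPML1-DL cells, 1,500 per well, cultured overnight, were loaded with a no-wash Ca2+ dye for 45–90 min. Calcium fluorescence was recorded on the FDSS for 110 s after compound addition, before the EC80 agonist (4 uM 54-4) was added.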
D2 ag – agonists of human D2 dopamine receptor (beta-arrestin) | P14416 | DiscoveRx PathHunter D2 beta-arrestin, luminescence, 90 min; 100% = 57 uM dopamine signal | activation, % (test concentration not listed) | 360,000 tested, 0.084% active | AID 624465; in the data active = activation above about 40%; inconclusive = about 15% to 40%; inactive = below about 15%; also: compound concentration not given in the record; the text of the record calls up to 30% inactive
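Agonist mode: compounds alone added to overnight-plated D2 PathHunter cells for 90 min at 37 C, with 57 uM final dopamine (EC100) defining full response. Beta-arrestin recruitment detected by chemiluminescent reagent, read after 1 h at ambient temperature.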
Active calls of the source: *; ? = inconclusive; . = not tested or not shown; & = joins results of further samples; [ ] = dose if it differs, or a comment.

compound,TRPML1 inh,D2 PAM,Six1-Eya2 blk,PINK1 modulator,TRPML1 agonist,D2 ag
COc1ccc2c(CC(=O)O)cc(=O)oc2c1,-13,-4,0,-1.6%,0.6,-0.1
COc1ccc(NC(=O)COC(=O)c2c3c(nc4ccccc24)CCCC3)cc1Cl,-2,-27,-18,1.3%,3.1,-0.2
COc1ccc(NC(=O)NCC(C)CSc2ccc(C)cc2)c(OC)c1 (stereo unspecified),37,-6,-10,0.4%,3.0,-4.2
COc1ccc(-c2cc(C(=O)N3CCCc4ccccc43)no2)cc1OC,-3,-1,17,5.0%[38.3 µM],2.9,-1.6
FC(F)Oc1ccc(NC(=S)NCCc2ccccn2)cc1,28,-11,-1,-0.5%,-0.8,-2.6
CCc1ccc(CNC(=O)CC2C(=O)NCCN2Cc2ccccc2F)nc1 (stereo unspecified),10,-3,-10,1.2%,-0.9,-1.5
COc1ccc(C(C)NC(=O)c2ccncc2)cc1OC (stereo unspecified),19,-8,3,1.5%,0.9,-3.6
COC(=O)c1ccc(S(=O)(=O)N2CCOCC2)o1,6,-7,-7,0.2%,0.0,-2.1
Cc1cccc(NC(=O)C2CC(=O)n3cnnc3S2)c1 (stereo unspecified),-12,-1,9,2.9%,0.6,3.1
Cc1cc(=O)c2cc(C(=O)c3ccccc3)ccc2[nH]1,-5,-6,24,-2.0%,1.6,-0.1
CCOC(=O)C1=C(C)NC(=O)CC1c1cc(OC)c(OC)cc1Br (stereo unspecified),16,-10,4,-0.7%,3.4,-18
COC(=O)C(Cc1ccccc1)P(=O)(c1ccccc1)c1ccccc1 (stereo unspecified),15,-17,3,-0.5%,-0.7,-0.2
Cc1nc(CC(=O)c2ccc(O)c(C)c2O)cs1,2,-3,2,0.8%,0.3,0.0
O=C(Nc1ccccc1)C1CCCN(S(=O)(=O)c2ccc(-n3cnnn3)cc2)C1 (stereo unspecified),-6,-5,-2,.,-0.1,0.7
COC(=O)[C@]12CCCCC=C1N(CCC1=CCCCC1)C(=O)[C@H](CC(=O)NCCc1ccccc1OC)C2,.,.,-13,?,0.2,.
CC(C)c1cc(C(=O)N2CCCC(Nc3ccc(F)cc3)C2)nc(N)n1 (stereo unspecified),-4,8,-1,-0.9%,-0.4,-3.0
O=C(Nc1cc(Cl)ncn1)c1ccccc1,5,-7,10,0.4%,0.5,6.8
COc1ccc(-c2coc3c2c(C)cc2oc(=O)c(C)c(C)c23)cc1,-5,.,.,-0.1%,-0.2,.
Cc1nc(-c2ccccc2)sc1C(=O)CSc1ccc(Cl)cc1,31,-19,64,4.0%,1.4,-1.1
COc1ccc(NC(=O)CSc2nc3c(cc2C#N)CN(C)CC3)cc1,20,-18,-13,-0.2%,1.6,-1.9
COc1ccc(CC(=O)OCC(=O)c2c(N)n(C)c(=O)n(C)c2=O)cc1OC,0,3,-3,1.4%,0.9,-3.0
O=[N+]([O-])c1ccccc1C=NNc1ccccc1,4,-13,?,13%,1.6,-3.1
Cc1noc(C)c1S(=O)(=O)N1CCN(c2ccc([N+](=O)[O-])cc2)CC1,-15,-8,-3,1.9%,1.2,0.2
Cc1cccc(CCNC(=O)CN(C)S(=O)(=O)c2ccc3c(c2)c(=O)n(C)c(=O)n3C)c1,-2,-7,6,-0.2%,-0.4,-6.2
CC1CCCCN1c1cc2c(cc1F)c(=O)c(S(=O)(=O)c1ccccc1)cn2Cc1ccccc1 (stereo unspecified),-6,.,.,-1.7%,1.9,.
COC(=O)C1=C(C)NC(C)=C(C(=O)OC)C1/C=C/c1ccccc1,3,-11,6,?,0.9,1.5
Cc1ccc(C)c(N(CC(=O)NC2CCCC2)C(=O)CCC(=O)Nc2nccs2)c1,15,3,3,0.4%,0.2,-1.3
N#CC1(NC(=O)CN2CCN(S(=O)(=O)c3ccccc3F)CC2)CCCC1,1,-12,-1,-0.5%,-0.5,-3.6
COc1cccc(/C=C/c2ccncc2)c1OC,1,-17,2,-1.5%,0.8,-0.3
CC1CC(C)CN(S(=O)(=O)c2ccc(C(=O)N3CCCC3)cc2)C1 (stereo unspecified),-8,2,14,0.0%,0.3,3.0

One compound at a time, as listed above. Values in the order: TRPML1 inh	D2 PAM	Six1-Eya2 blk	PINK1 modulator	TRPML1 agonist	D2 ag
COc1ccc(CC(=O)OCC(=O)c2c(N)n(C)c(=O)n(C)c2=O)cc1OC across the screens: 0	3	-3	1.4%	0.9	-3.0
N#CC1(NC(=O)CN2CCN(S(=O)(=O)c3ccccc3F)CC2)CCCC1 across the screens: 1	-12	-1	-0.5%	-0.5	-3.6
COC(=O)[C@]12CCCCC=C1N(CCC1=CCCCC1)C(=O)[C@H](CC(=O)NCCc1ccccc1OC)C2 across the screens: .	.	-13	?	0.2	.
COc1ccc(NC(=O)COC(=O)c2c3c(nc4ccccc24)CCCC3)cc1Cl across the screens: -2	-27	-18	1.3%	3.1	-0.2
CCc1ccc(CNC(=O)CC2C(=O)NCCN2Cc2ccccc2F)nc1 (stereo unspecified) across the screens: 10	-3	-10	1.2%	-0.9	-1.5

(more compounds)
compound,TRPML1 inh,D2 PAM,Six1-Eya2 blk,PINK1 modulator,TRPML1 agonist,D2 ag
Cc1ccccc1CS(=O)(=O)Cc1ccc(C(=O)NCCc2ccccc2)o1,20&-7,6,2,?,0.6&1.2,-0.2
Cc1onc(-c2ccccc2)c1C(=O)Nc1sc2c(c1C(N)=O)CCC2,35,4,-13,7.7%,3.0,-0.8
NS(=O)(=O)c1ccc(NC(=O)COC(=O)Cc2c[nH]c3ccccc23)cc1,-5,-10,-8,3.0%,0.3,-2.1
COc1ccc(OC)c(NC(=O)CNC(=O)Cn2ccc3ccccc3c2=O)c1,-3,-11,-5,-0.1%,-1.2,-1.8
COC(=O)C(OC(=O)c1ccccc1)C(C)Br (stereo unspecified),9,-9,14,4.8%,0.2,-0.6
O=C(NCC(=O)N1CCN(C(=O)c2ccccc2)CC1)c1ccc(Cl)cc1Cl,0,-7,-2,2.8%,-0.5,-3.2
COc1ccc(/C(N)=N/OC(=O)Cc2ccc(OC)c(OC)c2)cc1,21,19,1,.,0.7,-0.4
CCc1ccc(OCC(=O)OC(C)C(=O)Nc2ccc(Cl)cn2)cc1 (stereo unspecified),1,-1,0,-0.7%,0.0,1.1
Cn1c(SCC(=O)NCC2CCCO2)nnc1-c1ccco1 (stereo unspecified),4,0,3,0.3%,0.2,-1.2
O=C(CSCc1ccc(F)cc1)NC1CCCC1,20,-16,1,.,-0.2,-2.8
Cc1nc2ccccc2c(=O)n1/N=C/c1ccco1,1,-3,-4,-4.1%,1.6,1.7
COc1ccc(NC(=O)CN(C)CC(=O)Nc2ccccc2SC)cc1,-16,-9,11,-0.4%,-0.2,-3.7
Cc1ccc(Cl)cc1N1CCN(S(=O)(=O)c2ccc3c(c2)CC(C)N3C(=O)C2CCC2)CC1 (stereo unspecified),-7,.,.,1.1%,-0.6,.
COc1ccc(-c2ccc(C(=O)NCCN(C)C)c3occc23)c(C)c1,.,-15,1,8.0%,-0.1,-3.5
CCCCC[C@H]1CCCCC[C@@H](O)C[C@H](O)[C@H](O)/C=C/C(=O)O1,.,.,3,-0.3%,-0.1,.
O=C(O)COCC(=O)Nc1ccc(Oc2ncnc3cc(Cl)ccc23)nc1,45,-5,7,0.9%,0.1,-5.7
O=S(=O)(NCC(O)COCc1ccco1)c1cccs1 (stereo unspecified),-10,-9,-23,1.7%,-0.3,-3.0
CCCn1c2ccccc2c2cnn(CC(=O)Nc3ccc(C)cc3Br)c(=O)c21,-13,.,.,?,0.8,.
CCOCCCNC(=O)CN1C(=O)COc2ccc(S(=O)(=O)N3CCCCCC3)cc21,-4&-2,-9,0,-1.1%&0.9%,-0.5&-0.5,-0.6
CCN1CCCC1CNC(=O)c1cc2ccc(OC)cc2[nH]1 (stereo unspecified),5,-25,8,-0.5%,0.9,-2.8
CCn1cc2nc(SCC(=O)Nc3ccc(OC)cc3OC)n(Cc3ccc(OC)cc3)c(=O)c2n1,10,-2,-10,14%,0.9,-0.2
CC1CCCCN1C(=O)Cc1ccc(Cl)cc1 (stereo unspecified),13,-15,7,0.9%,0.7,-1.5
O=C(O)CC(Cc1ccc(Br)cc1)C(=O)Nc1ccccc1 (stereo unspecified),.,0,-2,-0.1%,.,-3.7
COc1ccc(OCC(O)CN2CCN(c3ccccc3)CC2)cc1 (stereo unspecified),-9,-25,-4,0.5%,-0.5,?
COc1ccc(CC(=O)Nc2ccc3c(C)cc(=O)oc3c2)cc1OC,3,0,3,9.3%,-0.1,-4.9
COc1cc(-c2cc(NC=O)c3ncc(-c4ccc(C(C)=O)cc4)n3c2)ccc1O,.,-4,1,-0.9%,-0.7,5.6
COc1ccc(CCN(CC(=O)NC(C)(C)C)C(=O)Cn2nnc(-c3ccc(C)o3)n2)cc1OC,19,-2,6,1.4%,0.0,0.0
CCC(Oc1ccccc1)C(=O)Nc1ccc(S(=O)(=O)Nc2cc(C)on2)cc1 (stereo unspecified),-1,-5,-1,0.3%,-0.5,-1.8
Nc1nnc(CSCc2ccccc2)s1,-1,1,2,3.3%,-0.5,-3.4
COc1cccc(CC(=NO)c2cccc(OC)c2)c1,3,4,-7,6.9%,3.9,4.7

(cont.)
compound,TRPML1 inh,D2 PAM,Six1-Eya2 blk,PINK1 modulator,TRPML1 agonist,D2 ag
Cc1nc2ccc(NC(=S)N3CCN(c4ccccn4)CC3)cc2nc1C,13,18,-5,0.0%,0.7,?
COC(=O)CSc1nnc(CNC(=O)c2ccco2)n1-c1ccc(F)cc1,13,-4,5,?,0.5,-0.5
CC(=O)N1c2ccc(S(=O)(=O)NCCc3ccccc3)cc2CC1C (stereo unspecified),-15,-10,-4,4.0%,3.3,1.3
O=C1CC2(CCN(C(=O)C(=O)c3c[nH]c4ccccc34)CC2)Oc2ccccc21,-2,-11,-1,-0.5%,0.3,-3.4
Cc1occc1C(=O)NC(C)C1CCCO1 (stereo unspecified),4,-4,6,11%[38.3 µM],-0.4,2.4
Cc1ccc2c(c1)c1c(c(=O)n(-c3cccc(Cl)c3)c(=O)n1CC(=O)c1ccc(Cl)cc1)n2C,37,.,.,1.3%,-0.1,.
C/C(=N\OCc1ccccc1)c1c(O)cc(C(C)C)n(-c2ccccc2)c1=O,4,-17,5,3.6%,0.1,-3.0
COc1ccc(-c2cc(C(C)=O)c(C)n2CCC(=O)Nc2cc(Cl)ccc2C)cc1,37,.,.,0.8%,3.8,.

Compounds were not picked by outcome; any-hit rate near 1%.
